# eIF4H FP inh: inhibitors of RNA binding by human eIF4H; inhibition, % at 35 µM; Q15056; 290,000 tested, 0.94% active; eIF4H fluorescence polarization binding assay;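 active means 50% or more with normal probe brightness, or confirmed in later tests; inconclusive means above 50% with abnormal brightness, or retests that disagree; inactive means below 50% or failed in later tests; about a fifth of its hits are not listed in these tables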;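 further: calls also rest on retests at 20 µM and on dose response follow-up; 0% = protein and probe with vehicle and 100% = probe without protein; strong numbers were not always called active; many hits fall short of the cut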
# MT1-MMP act inh: inhibitors of human MT1-MMP activation | P50281 | HT1080 RFP-PRO-GFP cells, GFP/RFP ratio fluorescence, overnight; percent of plate control window, DMSO zero | GFP/RFP ratio change, % at 20 µM | 360,000 tested, 0.061% active;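 active means GFP/RFP ratio change of at least 30% with cell ATP level not reduced by more than half and red fluorescence within 50% of control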; further: strong numbers were not always called active
#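 Assay system: HT1080 cells carrying an RFP-PRO-GFP reporter | Dosing: Single dose of 20 µM compound, 1% DMSO final | Incubation: Cells overnight before dosing, compound overnight, 37 °C, 5% CO2 | Evaluation: GFP/RFP fluorescence ratio | Control set: DMSO and RFP-L50D-GFP cell wells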
# PABP polyA inh: blocks human PABP binding to poly(A) RNA; P11940; fluorescence polarization; inhibition, % at 35 µM; 290,000 tested, 1% active; AID 2014;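 active means 50% or more with normal probe brightness, or confirmed in later tests; inconclusive means above 50% with abnormal brightness, or retests that disagree; inactive means below 50% or failed in later tests; about a fifth of its hits are not listed in these tables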;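 further: calls also rest on retests at 20 µM and on dose response follow-up; controls were probe without protein and protein plus probe with vehicle; some compounds called inactive have numbers as strong as hits; many hits fall short of the cut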
# Target sequence (P11940 whole entry, looked up): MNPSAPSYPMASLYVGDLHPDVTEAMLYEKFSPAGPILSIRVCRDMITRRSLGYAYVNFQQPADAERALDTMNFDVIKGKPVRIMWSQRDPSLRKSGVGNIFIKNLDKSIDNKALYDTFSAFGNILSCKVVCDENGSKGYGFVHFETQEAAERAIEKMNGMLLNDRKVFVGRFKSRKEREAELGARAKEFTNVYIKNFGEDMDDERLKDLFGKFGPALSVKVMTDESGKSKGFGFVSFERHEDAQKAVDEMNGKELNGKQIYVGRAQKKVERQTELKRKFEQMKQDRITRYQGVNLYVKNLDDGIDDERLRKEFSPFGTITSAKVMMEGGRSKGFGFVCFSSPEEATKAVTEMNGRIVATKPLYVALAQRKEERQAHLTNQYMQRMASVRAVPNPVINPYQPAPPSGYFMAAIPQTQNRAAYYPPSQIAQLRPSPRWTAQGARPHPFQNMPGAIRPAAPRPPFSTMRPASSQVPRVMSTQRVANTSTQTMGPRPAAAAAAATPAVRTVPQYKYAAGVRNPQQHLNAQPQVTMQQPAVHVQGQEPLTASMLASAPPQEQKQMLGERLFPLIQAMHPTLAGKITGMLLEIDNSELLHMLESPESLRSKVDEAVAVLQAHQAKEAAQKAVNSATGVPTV
# UUG fidelity: modulators of start codon recognition fidelity in yeast. 350,000 tested, 0.13% active. S. cerevisiae UUG-firefly luciferase reporter, luminescence/redox ratio. activity score, % at 18.7 µM;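 active means replicate mean at a twofold rise or more, about +100% in these data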;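 further: firefly luciferase made from a UUG start codon reports start codon fidelity; reporter light over untreated wells divided by growth signal over untreated wells; some hits fall short of that in this replicate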
# Env fusion inh: inhibitors of HIV Env-mediated cell fusion | 360,000 tested, 1.1% active | HeLa-JRFL Env/CEM21 cell fusion, luciferase | inhibition, % at 12.3 µM;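 active means mean replicate inhibition score of at least 50 and every replicate individually at or above 50; inconclusive means only one of the two criteria met; inactive means mean below 50 and not all replicates reaching 50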;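 further: 0% = plate neutral controls and 100% = maraviroc near 300 nM; one replicate is shown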
# Rce1 inhib: yeast Ras-converting enzyme inhibition. Q03530. yeast membranes, quenched prenylated peptide cleavage fluorescence. calls only. 290,000 tested, 0.27% active. AID 2563;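 active means fall in fluorescence gain of 50% or more versus controls, with final raw signal at or below 3038400; inconclusive means same 50% fall but final raw signal above 3038400; inactive means fall in fluorescence gain under 50%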;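 further: plate controls were neutral control wells for no effect and wells lacking membranes for full effect; tested at 10 µM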
# CSC inhib: cancer stem cell inhibition; cancer stem cell-like cells viability, luminescence; inhibition, % at 7.5 µM; 300,000 tested, 1.1% active;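 active means mean at 75% or more and at least half the replicates too; inconclusive means mean and replicates disagree; tested in HMLE shEcad cells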;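 further: 0% = median of negative and 100% = median of positive control wells; the first replicate is given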
# eIF4H FP inh retest: second read-out of eIF4H FP inh, no call of its own (marks repeat the call); inhibition, %; compound at 20 µM; confirmation average;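 mean of two retest wells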
# PABP polyA inh retest: further read-out of PABP polyA inh, marked with its call; inhibition, %; compound at 20 µM; confirmation repeats;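 mean of two retest wells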
# MT1-MMP act inh RFP: also measured in MT1-MMP act inh; calls as there; RFP signal change, %; measured here: RFP expression control read;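 0 = vehicle wells; hits needed this value within 50% of zero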
# * = called active by the depositor; i = inactive; ? = inconclusive; . = no result given.
SMILES,eIF4H FP inh,MT1-MMP act inh,MT1-MMP act inh RFP,PABP polyA inh,UUG fidelity,Env fusion inh,Rce1 inhib,CSC inhib,others
O=C(CSc1nnc(CN2CCOCC2)n1-c1ccccc1)Nc1ccc(Cl)cc1,17,4,1,-4,-11,24,i,0,
Cc1cccc(Oc2c([N+](=O)[O-])c(=O)n(C)c3ccccc23)c1,8,3,6,16,-3,4,i,11,
COC(=O)C1CCN(C(=O)CCCOc2ccccc2)CC1,-2,-1,1,-9,-43,-71,i,-9,
O=C(/C=C/c1ccc2c(c1)OCO2)NCCSCc1ccc(Cl)cc1,2,7,-7,4,10,.,i,93*,
COc1ccc(C2CC(c3ccccc3C(F)(F)F)=NN2c2ccc(S(N)(=O)=O)cc2)cc1 (stereo not drawn),.,-7,-4,.,6,15,.,.,
CCOc1ccc2nc(NC(=S)N(C)C)sc2c1,8,14,0,1,-27,-284,i,.,
CC(=O)Nc1cccc(NC(=O)Nc2cccc(F)c2)c1,-4,4,1,-2,.,-22,i,-9,
COC(=O)c1cc2occc2n1Cc1nc(-c2ccccc2F)oc1C,-11,-1,-4,2,-8,-10,i,-8,
CN(C)c1ccc(C(=O)c2ccccc2)cc1,-1,3,-5,9,-17,-11,i,-1,
COCCN1C(=O)C(=O)/C(=C(/O)c2ccc(S(=O)(=O)N3CCOCC3)cc2)C1c1ccc(O)c(OC)c1 (stereo not drawn),1,2,5,21,-19,.,i,-5,
CCN1CCN(S(=O)(=O)c2cccc(S(=O)(=O)N3CCOCC3)c2)CC1,1,1,1,7,.,5,i,-12,
COc1ccccc1CC(NC(C)=O)C(=O)NC1CCN(C(=O)Nc2ccccc2F)CC1 (stereo not drawn),-8,4,1,-3,-9,13,i,-2,

# The final 2 entries of the section before come first, to join the parts.
SMILES,eIF4H FP inh,MT1-MMP act inh,MT1-MMP act inh RFP,PABP polyA inh,UUG fidelity,Env fusion inh,Rce1 inhib,CSC inhib,others
CCN1CCN(S(=O)(=O)c2cccc(S(=O)(=O)N3CCOCC3)c2)CC1,1,1,1,7,.,5,i,-12,
COc1ccccc1CC(NC(C)=O)C(=O)NC1CCN(C(=O)Nc2ccccc2F)CC1 (stereo not drawn),-8,4,1,-3,-9,13,i,-2,
CC(C)c1ccc(CNc2nc3nc4c(c(=O)n3[nH]2)CCC4)cc1,-11,7,2,-7,-26,2,i,-5,
CCOC(=O)C1=CCC(c2ccccc2)N(S(=O)(=O)c2ccccc2C)C1 (stereo not drawn),.,-1,-8,.,-5,1,.,.,
CCOC(=O)C(NCc1ccc2c(c1)OCO2)(NC(=O)CC)C(F)(F)F (stereo not drawn),-4,7,8,5,-54,-124,i,.,
CC(=O)N(C)C(c1ccc(N(C)C)cc1)c1nnnn1-c1c(C)cccc1C (stereo not drawn),-1,3,6,12,.,4,i,4,
O=[N+]([O-])c1ccc(COc2cccc(CNc3ccc(F)cc3)c2)cc1,-6,2,-5,3,.,.,i,26,
COc1ccc(C2C(C(=O)Nc3ccc(F)cc3)=C(C)Nc3nc(CCCO)nn32)cc1 (stereo not drawn),-3,4,5,2,-14,0,i,-2,
COc1ccc(NC(=S)N2CCN(Cc3ccccc3)CC2)c(OC)c1,-2,0,0,66,.,25,i,-3,eIF4H FP inh retest=-4;PABP polyA inh retest=4
COc1ccc(/C(N)=N/OC(=O)CSc2ccc(C)cc2)cc1OC,10,-5,-2,-2,.,5,i,11,
Clc1cccc(CNc2ccn3nc(-c4cccc(Cl)c4)cc3n2)c1,.,2,-6,.,-15,-21,.,.,
CCCCn1c(SCC(=O)c2ccc3c(c2)NC(=O)CO3)nc2cc(S(N)(=O)=O)ccc21,1,-5,1,-4,.,5,i,-8,
CCOc1cc(NC(=S)NCC2CCCO2)c(OCC)cc1NC(=O)CC (stereo not drawn),-11,0,2,-4,.,-8,i,9,
CS(=O)(=O)NCCSCc1c(Cl)cccc1Cl,-2,10,-3,4,-14,-16,i,-17,
CS(=O)(=O)c1cc([N+](=O)[O-])c(Sc2nc3ccccc3[nH]2)c([N+](=O)[O-])c1,-8,-1,2,22,-7,.,i,-8,
CCCn1c(=NC(=O)c2c(-c3c(F)cccc3Cl)noc2C)c(C(=O)OCC)cc2c(=O)n3ccccc3nc21,-6,.,.,-1,.,.,i,41,
CC1CCCN(C(=O)Cn2c(-c3nonc3N)nc3ccccc32)C1 (stereo not drawn),-3,1,3,3,-15,-26,i,-6,
COCOc1cccc(CN2CCC(C)(Oc3ccc(C(C)=O)cc3)C2)c1 (stereo not drawn),.,0,5,.,-5,-39,.,.,
Cc1nc2ccccc2c(=O)n1NC(=O)c1ccc(F)cc1Cl,-7,-3,1,2,-1,-61,i,11,
Cc1cccc(C(=O)NCC(=O)OCC(=O)NC2CCCCCCC2)c1,.,-4,1,.,11,-14,i,-4,
O=C(CCn1cnc2ccccc2c1=O)Nc1nc(-c2ccc(Br)cc2)cs1,4,6,3,24,.,-23,i,-8,
CCc1ccc(NC(=O)CSc2nncn2-c2cccnc2)cc1,-9,-1,1,-2,-9,-30,i,-7,
CCOc1ccc(/C=C2\CCc3ccccc3C2=O)cc1,-7,-4,3,5,-28,5,i,18,
c1ccc2cc(Sc3ncnc4c3oc3ccccc34)ccc2c1,4,4,-3,5,.,14,i,4,
CCCCSc1c(C)c2cc3c(cc2[nH]c1=O)OCO3,-6,5,-2,-9,-10,.,i,-1,
CC[C@H]1OC(=O)[C@H](C)[C@@H](O[C@H]2C[C@@](C)(OC)[C@@H](O)[C@H](C)O2)[C@H](C)[C@@H](O[C@@H]2O[C@H](C)C[C@H](N(C)C)[C@H]2O)[C@](C)(O)C[C@@H](C)C(=NOCOCCOC)[C@H](C)[C@@H](O)[C@]1(C)O,-6,-14,-1,-3,-1,.,i,1,
COc1ccccc1-n1ccnc1SCC(=O)NCC1CCCO1 (stereo not drawn),-9,2,4,-5,-12,-3,i,-10,
CCCCCn1nc(C(=O)N2CCc3ccccc32)c2ccccc2c1=O,.,0,-8,.,-7,18,.,-3,
COC(=O)c1ccc(NC(=O)c2sc3nc(-c4ccccc4)cn3c2C)cc1,-3,2,-6,-7,-13,-27,i,-6,
Cn1cccc1C(=O)OCC(=O)Nc1cc(C(C)(C)C)nn1-c1ccccc1,4,5,2,-1,.,?,i,-14,
COc1ccccc1C(=O)NCC(=O)Nc1ccc2c(c1)CCC2,.,0,3,.,-15,-14,.,-15,
CC(=O)Nc1cccc(C(=O)Nc2cccnc2)c1,-2,3,4,9,-10,-3,i,-9,
CCC(=O)NC(=S)NNC(=O)c1ccc(OC)cc1,14,9,4,-1,-29,.,.,20,
CC1CC(C)CN(CC(O)COCCOc2ccc(Br)cc2)C1 (stereo not drawn),9,3,3,0,.,-1,i,23,
Cc1nnc(SCC(=O)c2ccc(Cl)cc2)n(N)c1=O,3,3,1,-7,.,-30,.,2,
CN1CCC(=C2c3ccccc3C(O)c3ccccc32)CC1 (stereo not drawn),12,-10,1,8,-5,11,i,.,
Cc1nn(Cc2ccc(F)cc2)c(C)c1NC(=O)c1noc2c1CCCCC2,-6,4,-9,2,-3,-6,i,-15,
CC(=O)NC1=NC(=O)/C(=C/N2CCCCC2)S1,-13,2,1,-2,-24,-30,i,-1,
C[N+]1(CC(O)COCC2COc3ccccc3O2)CCOCC1 (stereo not drawn),-7,-1,3,-8,.,?,i,-17,
Cc1c(OCC(=O)NCC2CCC(C(=O)NCCCO)CC2)ccc2c(-c3ccccc3)cc(=O)oc12 (stereo not drawn),4,1,5,-3,0,5,i,4,
CCOC(=O)CSc1nc2ccc(C)cc2n2cnnc12,0,7,3,-2,20,5,i,-1,
Cc1c([C@H]2[C@@H](CC#N)C2(C)C)c2ccccc2n1C,-6,-5,1,2,-8,.,i,-18,
Clc1ccc(CNc2ccc(N3CCN(Cc4ccccc4)CC3)cc2)cc1,-2,-3,-23,-2,-16,32,i,17,
COc1ccc2cc(C(C)C(=O)OC(C)C)ccc2c1 (stereo not drawn),.,6,-1,.,3,-19,.,-3,
O=C(c1ccccc1)N1CCC(c2nc(-c3ccc(S(=O)(=O)NCC4CCCO4)cc3)no2)CC1 (stereo not drawn),-1,-11,-23,2,.,87*,i,6,
CCOc1cc(CNCCCN2CCOCC2)ccc1OCC(=O)NC(C)(C)C,0,-16,-9,14,-12,-13,i,-10,
Cc1cccc(C(=O)OC(C)C(=O)N2CCN(Cc3ccccc3)CC2)c1 (stereo not drawn),.,-3,0,.,-1,13,.,.,
COc1ccccc1CNC(=O)C1CCC(CNS(=O)(=O)c2ccc(F)cc2)CC1 (stereo not drawn),-5,1,1,-5,-3,12,i,-2,
COc1ccc(-n2nc(C(=O)NCC(=O)NCCCN3CC(C)CC(C)C3)c3ccccc3c2=O)cc1Cl (stereo not drawn),28,2,2,10,-19,10,i,-10,
CC(=O)c1ccc(N2CCN(C(=O)Cc3cccs3)CC2)cc1,-8,-6,-3,6,-1,0,i,5,
N/C(=N\OC(=O)c1cccs1)c1cccc(Br)c1,-6,-2,2,2,-19,-18,i,-9,
Cc1cc(C)c(C)c(S(=O)(=O)Nc2ccccc2C(=O)NCCCn2ccnc2)c1C,1,-5,-1,-13,-13,.,i,.,
CC/C(C)=C1\SC(N2CCN(c3cccc(C(F)(F)F)c3)CC2)=NC1=O,-9,-3,-13,-2,-6,33,i,12,
CC(=O)c1ccc(N2C(=NC(=O)C(C)C)SC3CS(=O)(=O)CC32)cc1 (stereo not drawn),-5,3,1,-11,-18,-25,i,-10,
COc1cccc(NC(=O)Nc2cc(NC(=O)Nc3cccc(OC)c3)c(C)nc2C)c1,1,3,5,47,.,-2,i,-9,
Cc1nc(CN(C)C(=O)CC2C(=O)NCCN2Cc2ccc(F)cc2)cs1 (stereo not drawn),10,-3,2,12,-3,-3,.,-11,
COc1cccc(C(=O)NCCS(=O)(=O)NCc2cccs2)c1,.,-2,0,.,.,.,i,3,
CC(OC(=O)c1ccc2c(c1)OCCO2)C(=O)c1ccccc1 (stereo not drawn),.,-1,1,.,.,-107,i,-3,
O=C(CCc1ccccc1)Nc1ccccc1F,-2,-1,6,-5,.,.,i,3,
Cc1ccccc1Nc1nnc(SCC(=O)c2cc3ccccc3o2)s1,-3,.,.,2,.,-23,i,6,
Cc1cc(C(=O)Nc2sccc2C(N)=O)c(C)o1,.,-6,2,.,.,-1,.,-1,
COc1ccccc1NC(=O)c1ccc(C)s1,-9,-1,2,-8,.,-29,i,-12,

# The list continues.
SMILES,eIF4H FP inh,MT1-MMP act inh,MT1-MMP act inh RFP,PABP polyA inh,UUG fidelity,Env fusion inh,Rce1 inhib,CSC inhib,others
Cc1cc(C)cc(OCCN2CCOCC2)c1,-2,7,2,-4,-9,0,i,-2,
Cc1occc1C(=O)NCc1nc(-c2ccc(Cl)cc2)no1,-7,2,-2,12,-18,3,i,17,
CN(Cc1ccccc1)Cc1c[nH]c2ccccc12,7,12,-2,-6,3,-15,i,23,
CCc1ccc(OCc2cccc(C(=O)N/N=C\c3cnn(C)c3C)c2)cc1,12,-1,0,-11,-16,-7,i,.,
Cc1ccccc1NC(=O)N1CCC(NC(=O)C2CCCCC2)CC1,1,2,0,6,-12,4,i,12,
Cn1cc(Cl)c(-c2nc3ccccc3[nH]2)n1,2,1,-2,-2,-29,.,i,-1,
Cc1ccc(C)c(NC(=O)c2ccccc2NC(=O)C2CCCO2)c1 (stereo not drawn),-1,1,2,-14,.,-25,i,-16,
Cc1onc(C(=O)/C=C/N(C)C)c1C(=O)Nc1nccs1,0,-2,-1,-8,-3,.,i,-9,

# Screening data (PubChem BioAssay)

# These rows are one share of the data, so the mix of outcomes need not match the whole.
